# Source: PubChem (several laboratories)
# CBX7 inh = blocks human CBX7 binding to H3K27me3 peptide; normalised signal (fraction of DMSO) (no concentration beside the values); AlphaScreen His6-CBX7 / biotin-H3K27me3 peptide binding; active compounds read low; O95931; hit rate 1.1% among 66,000; in the data active = normalised signal below about 0.5;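 note: 100 nL library stock added to about 20 µL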
# Target sequence (O95931 whole entry, looked up): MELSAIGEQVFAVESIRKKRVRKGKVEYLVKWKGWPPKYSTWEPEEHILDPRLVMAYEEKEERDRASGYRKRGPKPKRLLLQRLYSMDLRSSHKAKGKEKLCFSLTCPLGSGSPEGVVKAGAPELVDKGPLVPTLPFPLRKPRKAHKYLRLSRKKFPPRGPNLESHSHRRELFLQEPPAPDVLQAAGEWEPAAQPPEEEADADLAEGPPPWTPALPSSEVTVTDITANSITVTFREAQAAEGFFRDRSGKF
# CBX7 inh z-score = recorded beside CBX7 inh, whose call it bears; z-score; measured here: z-score of CBX7 signal; some inactives read as strong as hits; reference of the scale not given here;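 same signal on another scale; lower means less binding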
# An asterisk follows results filed as active; & = joins results of further samples. An excerpt; rates above refer to the full screens.
compound | CBX7 inh | CBX7 inh z-score
COc1ccc(Cn2cc(S(=O)(=O)c3ccc(C)cc3)c(=O)c3cc(OC)ccc32)cc1 | 0.89 | -4.2
Cc1nc2cc(NC(=O)c3ccc(N4C(=O)CCC4=O)cc3)ccc2s1 | 0.96 | -0.73
Cc1ccc(C)c2[nH]c(=O)c(CCNC(=O)c3cccc(C(F)(F)F)c3)cc12 | 0.98 | -0.44
CCOc1ccccc1NC(=O)c1nn(-c2cccc(OC)c2)c(=O)c2ccccc12 | 1 | 0.11
CCOc1cc(C2CC(=O)Nc3cc4c(cc32)OCO4)ccc1O (configuration not stated) | 0.98 | -0.17
COc1cc2c(C(=O)NCc3ccc4c(c3)OCO4)cn(C)c(=O)c2cc1OC | 0.99 | -0.32
Cc1cc(C(=O)O)ccc1-n1c(C)ccc1C | 0.93 | -1.1
Cc1ccc(C)c(N2CCN(C(=O)CCCn3c(=O)[nH]c4ccsc4c3=O)CC2)c1 | 0.97 | -0.15
COc1ccc2cc(CCNC(=O)C(C)(C)C)c(=O)[nH]c2c1 | 1 | 1.3
Cc1ccc(NC(=O)c2cc(-c3cccc(Cl)c3)on2)cc1C | 0.94 | -0.79
COc1ccccc1NC(=O)N1CCN(c2ccc3nncn3n2)CC1 | 1 | 0.25
COc1cccc(-c2nn(C)c3sc(C(=O)Nc4ccccc4OC)cc23)c1 | 1 | -0.038
Cc1ccc(NC(=O)c2cnn(-c3ccc(C)cc3)c2C2CCN(C(=O)OC(C)(C)C)CC2)cc1 | 1 | 1.3
Cc1ccc(-c2nnc(N3CCOCC3)c3ccccc23)cc1S(=O)(=O)N1CCN(C)CC1 | 0.93 | -0.086
COc1cc2c(c(OC)c1)C(c1ccccc1C)CC(=O)N2 (configuration not stated) | 0.97 | -0.039
COc1ccccc1-c1c(C)nn2c(NCc3ccccc3)cc(C)nc12 | 1.1 | 0.43
COc1ccccc1CNC(=O)c1ccc2c(c1)NC(=O)c1ccccc1N2 | 0.71 | -2.4
Cc1ccc(-n2nc3c(c2NC(=O)Cc2cccs2)CSC3)c(C)c1 | 1 | 0.26
Cc1onc(-c2c(F)cccc2Cl)c1C(=O)Nc1ccc(OC(F)(F)F)cc1 | 1.1 | 1.3
Cc1cc(=O)oc2c1ccc1occ(Nc3ccc(O)cc3)c12 | 0.52 | -6.7

compound | CBX7 inh | CBX7 inh z-score
Cc1ccc(C)c(N2CCN(C(=O)CCCC3=NS(=O)(=O)c4ccccc4N3)CC2)c1 | 0.86 | -1.6
CN(Cc1ccccc1)C(=O)CN1C(=O)COc2ccc(S(=O)(=O)N3CCOCC3)cc21 | 1 | 2
CCOC(=O)N1CCC(Nc2c(N3CCN(c4cccc(C)c4C)CC3)c(=O)c2=O)CC1 | 1.1 | 1.4
O=C(NCCC(c1ccccc1)c1ccccc1)c1cnc2sccn2c1=O | 1 | 0.51
CCOC(=O)c1cnc2ccc(OC)cc2c1Nc1ccc(C)c(Cl)c1 | 0.69 | -1.4
COc1cccc(-n2nc(C(=O)Nc3ccc(OC)c(OC)c3)c3ccccc3c2=O)c1 | 0.75 | -3.4
COc1ccc(CNC(=O)CCCNS(=O)(=O)c2ccc3c(c2)CCC(=O)N3)cc1 | 1 | 0.29
Cc1cccc(C(=O)Nc2nc3c(s2)C(=O)CC(C)(C)C3)c1 | 0.99 | -0.24
COc1cccc(-c2cc(C(=O)Nc3cc(C)on3)c3ccccc3n2)c1 | 1.1 | 0.69
COc1ccc(N2CCN(S(=O)(=O)c3ccccc3-c3nn[nH]n3)CC2)cc1 | 0.99 | -0.48
O=C(CN1CC(c2ccccc2)CC1=O)N1CCN(c2ccccn2)CC1 (configuration not stated) | 0.96 | -1
Cc1ccc(Cn2nnc3c(=O)n(CC(=O)Nc4ccc(F)cc4F)cnc32)cc1 | 0.82 | -2.9
Cc1ccc(C2CC(c3ccccc3C)n3ncnc3N2)cc1 (configuration not stated) | 0.98 | -0.75
COc1ccccc1OCCn1c(C2CC(=O)N(Cc3ccccc3)C2)nc2ccccc21 (configuration not stated) | 0.96 | -0.25
Nc1nonc1-c1noc(COc2ccc(Br)cc2)n1 | 1.2 | 2.6
NC(=O)c1ccccc1C(=O)c1ncc[nH]1 | 1 | -0.03
COc1ccc(-c2nc(-c3ccncc3)no2)cc1 | 1.1 | 2.4
CC1(C)CC(=O)c2sc(NC(=O)c3ccc(Cl)cc3)nc2C1 | 0.99 | -0.31
COc1ccccc1N1CCN(C(c2cccs2)C(C)NC(=O)c2ccc3c(c2)OCO3)CC1 (configuration not stated) | 0.9 | -2.3
O=C(Nc1ccc(Cl)c(-c2nc3ncccc3o2)c1)c1ccccc1 | 1.1 | 1.1

compound | CBX7 inh | CBX7 inh z-score
COc1ccc(C(=O)Nc2c(C(N)=O)oc3ccccc23)cc1 | 0.98 | -0.11
CN(C)S(=O)(=O)c1ccc(C(=O)Nc2nnc(-c3cccs3)o2)cc1 | 0.22* | -13*
CCN(CC)CCNC(=O)c1cn(CC)c(=O)c2cc(OC)c(OC)cc12 | 1.3 | 2.4
COc1cc(-c2nc(-c3cnc4ccccc4c3)c(-c3ccccc3)[nH]2)ccc1OCc1ccccc1 | 0.85 | -0.15
CS(=O)(=O)N1CCCC(C(=O)NCc2cccs2)C1 (configuration not stated) | 1.1 | 0.98
Cc1ccc(S(=O)(=O)C2(C(=O)N3CCC(C)CC3)CC2)cc1 | 1 | 0.43
CCN(CC)C(=O)COc1ccc(-c2nnc(NCc3ccccc3)c3ccccc23)cc1 | 1 | 0.56
CCc1ccc(NC(=O)Cn2ncc3c2-c2ccccc2OC3)cc1 | 0.98 | -0.29
CCN(CC)C(=O)Cn1cnc2sc(C(=O)Nc3cc(Cl)c(OC)cc3OC)c(C)c2c1=O | 1 | 1.4
Cc1ccc(-n2cc(-c3ccccc3)c3c(NCc4ccc(F)cc4)ncnc32)cc1 | 1 | 1.2
Cc1onc(-c2c(F)cccc2Cl)c1C(=O)Nc1ccccc1F | 1 | 0.00086
Cc1cc(C)cc(-n2cnc3cc(C(=O)NC4CCCC(C)C4C)ccc32)c1 (configuration not stated) | 0.68 | -5.6
CCn1cc(C(=O)Nc2cccc(Cl)c2)c(=O)c2ccc(C)nc21 | 1.1 | 0.6
Cc1cc(C)n(-c2ccc(Cl)cc2)c(=O)c1C(=O)O | 1.1 | 1.3
O=C1c2ccccc2C(Nc2ccc3c(c2)OCCO3)N1c1ccc(Cl)cn1 (configuration not stated) | 0.66 | -9.3
O=C(Nc1ccc(O)c(-c2nc3ccccc3o2)c1)C1(c2ccc(Cl)cc2)CCCC1 | 0.85 | -1.9
O=C(Nc1ccc(F)cc1)c1cc2cc(Br)ccc2oc1=O | 0.95 | -0.78
Cc1cccc(C)c1NC(=O)C1CCN(C(=O)c2cnn(-c3ccccc3)c2-n2cccc2)CC1 | 1.3 | 0.76
COc1ccc(NC(=O)CSc2nnc(-c3cccnc3)o2)cc1 | 0.93 | -1
CCCCNC(=O)c1ccc2c(c1)N(Cc1cccc(F)c1)C(=O)c1ccccc1S2 | 0.95 | -0.7

mol | CBX7 inh | CBX7 inh z-score
Cc1c(NC(=O)c2ccccc2F)cccc1-c1nc2ccccc2s1 | 1.1 | 2.6
CCN(CCCNC(=O)Cn1nc(Cc2ccncc2)c2ccccc2c1=O)c1cccc(C)c1 | 0.9 | -2.3
O=C(Cn1nc(-c2ccccc2)c2cc(Cl)ccc21)NCCN1CCOCC1 | 1 | -0.14
CC(C)Oc1ccc(C(=O)Nc2ccccc2-c2nc3ccccc3[nH]2)cc1 | 1 | -0.087
COc1c(-c2cc(-c3ccccc3)n[nH]2)c(O)c(OC)c2occc12 | 0.65 | -1.4
COc1cccc(NC(=O)CN(C)S(=O)(=O)c2ccc3c(c2)n(C)c(=O)c(=O)n3C)c1 | 1.2 | 2.1
O=C(O)c1cc(Nc2ccnc3cc(Cl)ccc23)ccc1O | 0.81 | -2.3
Cc1cc(Nc2ccccc2C(F)(F)F)n2ncnc2n1 | 1.1 | 2
CCOc1ccc(CCNC(=O)c2cccc3c2C(=O)N(CCOC)C3)cc1OCC | 1.1 | 2.3
CCN(c1ccccc1)S(=O)(=O)c1ccc2[nH]cc(C(=O)NC3CCCCCC3)c(=O)c2c1 | 0.98 | -0.57
O=C1CN(C(=O)c2c(F)cccc2Cl)C(c2ccccc2)c2cc(F)ccc2N1 (configuration not stated) | 0.94 | -0.26
COCCNC(=O)c1cc2c(s1)CS(=O)(=O)C2 | 1 | 0.51
O=C(NCCc1ccccc1)c1ccc(CNc2c(NC3CCCC3)c(=O)c2=O)cc1 | 1.4 | 0.81
COc1ccc(N2CCN(CC(O)COc3cc(C)c(Cl)c(C)c3)CC2)cc1 (configuration not stated) | 0.87 | -1.2
CCCOc1ccc(C(O)(CC)C(CN2CCOCC2)c2ccccc2)cc1 (configuration not stated) | 0.97 | -0.85

# 3 structures from above, sorted by formula weight, ascending:
mol | CBX7 inh | CBX7 inh z-score
COc1ccccc1NC(=O)N1CCN(c2ccc3nncn3n2)CC1 | 1 | 0.25
Cc1ccc(NC(=O)c2cnn(-c3ccc(C)cc3)c2C2CCN(C(=O)OC(C)(C)C)CC2)cc1 | 1 | 1.3
COc1ccccc1N1CCN(C(c2cccs2)C(C)NC(=O)c2ccc3c(c2)OCO3)CC1 (configuration not stated) | 0.9 | -2.3

# (continued)
mol | CBX7 inh | CBX7 inh z-score
COc1ccc(C)cc1NC(=O)c1oc2ccc(S(=O)(=O)N3CCCC3)cc2c1C | 1 | 0.39
COc1ccc(NC(=O)c2nn(-c3ccccc3OC)c(=O)c3ccccc23)c(OC)c1 | 0.84 | -3.5
COc1ccccc1N1CCN(c2ncc(C(=O)Nc3ccc(F)c(Cl)c3)c3ccccc23)CC1 | 1 | 0.68
Cc1ccc(-c2nc3ccccc3o2)cc1NC(=O)c1cccs1 | 0.99 | -0.31
Cc1ccc(CNC(=O)Cn2ncc3ccsc3c2=O)cc1 | 0.98 | -0.72
CC(C)Oc1ccc(CNC2CCOC(C)(C)C2)cc1 (configuration not stated) | 1.1 | 1.8
Cc1c(C(=O)NC2CC2)oc2ccc(S(=O)(=O)N3CCCC(C)C3)cc12 (configuration not stated) | 1 | 0.4
CC(NC(=O)c1c(F)cccc1F)C(c1cccs1)N1CCN(c2ccccc2)CC1 (configuration not stated) | 0.89 | -1.2
COc1ccc(CC2CC(=O)N(c3ccc(C)cc3)C2=O)cc1 (configuration not stated) | 1.1 | 2.8
CCOC(=O)c1cccc(NC(=O)CCc2c(C)nc3cc(-c4ccc(Cl)cc4)nn3c2C)c1 | 1 | 0.7
CCC1Oc2ccc(C)cc2N(CC(=O)N(C)Cc2ccccc2)C1=O (configuration not stated) | 0.92 | -1.5
CC(C(=O)NCc1ccc(F)cc1)n1ncc2ccccc21 (configuration not stated) | 0.94 | -1.1
CCOc1ccc(Nc2c3c(nc4ccccc24)CCC3)cc1 | 0.85 | -3.3
N#Cc1c2n(c3c(=O)n(Cc4ccccc4)cnc13)CCCC2 | 0.92 | -0.81
Cc1ccc(-c2noc(CCC(=O)NC(C)CCc3ccccc3)n2)cc1 (configuration not stated) | 1.1 | 2

mol | CBX7 inh | CBX7 inh z-score
CC1CN(S(=O)(=O)c2ccc(C(=O)Nc3nnc(-c4ccc(F)cc4)o3)cc2)CC(C)O1 (configuration not stated) | 0.012* | -4.3*
CCc1nnc(NC(=O)c2ccc(S(=O)(=O)N(C)c3ccccc3)cc2)o1 | 0.68 | -7.3
Cc1ccc(OCc2nnc(NC(=O)c3ccccc3C)s2)c(C)c1 | 1.1 | 0.35
CCOc1ccc(C(=O)Nc2nc3ccc(OCC)cc3s2)cc1 | 0.87 | -3.4
CCOC(=O)c1cc(C)sc1NC(=O)c1cccc(Br)c1 | 1.2 | 9.4
Cc1ccc(NS(=O)(=O)c2cc(-c3n[nH]c(=O)c4ccccc34)ccc2C)cc1 | 0.89 | -3.2
Cc1cc(-c2cc(C(=O)O)c3ccccc3n2)c(C)s1 | 1 | -0.022
Cn1c(C(=O)N2CCC(C(=O)N3CCCC3)CC2)cc2sccc21 | 0.93 | -1.3
CCC(=O)Nc1nc(-c2ccccc2OC)cs1 | 1.2 | 2
COc1ccc(C)cc1-n1c(C)nc2cc(C(=O)NC3CCCC3)ccc21 | 0.98 | -0.66
O=C(CCn1nc(-c2ccc(Cl)cc2)c2ccccc2c1=O)Nc1ccc(Cl)cc1 | 0.98 | -0.63
CCC(C)NC(=O)c1ccccc1-c1nc2ccccc2[nH]1 (configuration not stated) | 1.2 | 3.7
CCCCCn1c(CCCNC(C)=O)nc2ccccc21 | 1.1 | 0.82
O=C(Cn1nnc(-c2ccc3c(c2)OCO3)n1)Nc1ccc(OC(F)(F)F)cc1 | 1.1 | 0.66
Cc1ccc(-c2nc3c(cnn3-c3ccccc3)c(=O)n2-c2ccccc2)cc1 | 0.98 | -0.86

mol | CBX7 inh | CBX7 inh z-score
CCOc1ccc2nc(N3CCC(C(=O)NCCc4ccc(Cl)cc4)CC3)sc2c1 | 0.97 | -0.13
CC(=O)NC1C(OCc2ccccc2)OC(COC(C)=O)C(OC(C)=O)C1OC(C)=O (configuration not stated) | 1 | 0.83
CCOc1ccc(CCNC(=O)CC2Oc3ccccc3NC2=O)cc1 (configuration not stated) | 0.99 | -0.7
c1ccc(Cn2c(CNc3nc4ccccc4n3CCN3CCCCC3)nc3ccccc32)cc1 | 0.84&0.62 | -4.3&-4.2
CCCC1=Nc2cc(C(=O)NC)ccc2Sc2ccccc21 | 1.1 | 0.85
CCC(C)NC(=O)CN1CCN(Cc2ccc(Cl)cc2)C1=O (configuration not stated) | 1.1 | 0.73
CCC(=O)N1CCc2cc(S(=O)(=O)NCC(=O)O)ccc21 | 0.99 | -0.29
Cc1cc(C)cc(NC(=O)C2CCCN2S(=O)(=O)c2cccc3cccnc23)c1 (configuration not stated) | 0.95 | -1.8
CCOC(=O)c1ccc(NC(=O)c2csc3c2CCCCC3)cc1 | 1.1 | 4.3

# An excerpt of these results, with two lines to a compound.
# Results follow in this order: CBX7 inh, CBX7 inh z-score
Cc1cc(C)cc(NC(=O)C2CCCN2S(=O)(=O)c2cccc3cccnc23)c1 (configuration not stated)
→ 0.95, -1.8
CCOC(=O)c1ccc(NC(=O)c2csc3c2CCCCC3)cc1
→ 1.1, 4.3
